# FGF22 binding – shifts melting point of recombinant human FGF22 | Q9HCT0 | recombinant FGF22 thermal shift, SYPRO orange fluorescence; percent of sucrose octasulfate shift, DMSO zero | calls only at 9.99 µM | actives 1.5% (n = 340,000);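 active means melting point raised past a set limit in the mean and every replicate; three in four hits are not shown here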
# Target sequence (Q9HCT0 whole entry, looked up): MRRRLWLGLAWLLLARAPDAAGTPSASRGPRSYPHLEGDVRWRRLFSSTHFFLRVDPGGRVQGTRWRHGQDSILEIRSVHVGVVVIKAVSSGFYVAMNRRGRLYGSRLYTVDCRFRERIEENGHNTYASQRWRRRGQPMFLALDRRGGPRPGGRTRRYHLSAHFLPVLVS
# HNF4A DNA FP – change in binding of human HNF4 alpha to DNA | HNF4a-FITC DNA binding, fluorescence polarization, 1 h | activity change, % at 10 µM | actives 0.3% (n = 360,000) | AID 1224865; in the data active means activity change above about 30%, passing the limit was not always enough;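 further: controls were the assay level and a saturating level of protein; the project sought stronger binding though the title names inhibitors; some compounds called inactive have numbers as strong as hits; positive values seem to mean higher polarization but the record does not say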
# Target sequence (P41235 whole entry, looked up): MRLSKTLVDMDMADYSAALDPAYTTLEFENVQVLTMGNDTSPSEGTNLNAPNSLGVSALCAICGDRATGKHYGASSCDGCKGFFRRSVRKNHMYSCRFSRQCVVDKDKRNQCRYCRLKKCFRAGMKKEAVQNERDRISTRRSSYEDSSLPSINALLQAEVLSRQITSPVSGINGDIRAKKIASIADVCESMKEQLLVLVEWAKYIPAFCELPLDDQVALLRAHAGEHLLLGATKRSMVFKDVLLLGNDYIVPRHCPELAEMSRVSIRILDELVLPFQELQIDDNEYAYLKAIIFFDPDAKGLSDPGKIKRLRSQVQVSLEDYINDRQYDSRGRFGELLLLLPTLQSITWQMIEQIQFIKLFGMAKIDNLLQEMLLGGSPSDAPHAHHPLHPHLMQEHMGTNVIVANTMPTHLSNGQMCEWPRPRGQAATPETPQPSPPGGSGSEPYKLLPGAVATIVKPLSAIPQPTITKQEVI
# Numbers without * were called inactive; i = inactive.
# Each structure is followed by: FGF22 binding | HNF4A DNA FP
Cc1cccc(C)c1NC(=O)C1(C)CCC(=O)N1CCOc1ccccc1 (stereo unspecified)
    i | -1.6
CNc1cccc(-c2ccc(C(=O)N3CCOCC3)cc2)n1
    i | -1.2
CCN(CC(=O)Nc1cc(Cl)ccc1C)CC(=O)NC1CC1
    i | 1.7
CC1=C(C(=O)N(C(C)C)C(C)C)CC(CC(=O)NC2CC2)C(=O)N1CCC1=CCCCC1 (stereo unspecified)
    i | -0.1
CCc1ccc(CNC(=O)C2CCN(S(=O)(=O)N3CCCCC3)CC2)cc1
    i | 1.5
O=S1(=O)CC(N2CCCCC2)CN1Cc1cn(Cc2ccc(F)cc2)nn1 (stereo unspecified)
    i | 0.4
c1ccc(N2CCN(c3nccn4ccnc34)CC2)nc1
    i | -3.3
Cc1cccc(CNC(=O)Nc2nnc([C@H]3C[C@H](O)[C@@H](CO)O3)s2)c1
    i | -2.3
C=C(C)Cn1c2ccc(NC(=O)NCc3ccc(F)cc3)cc2c(=O)n1C
    i | 0.9
Cc1nc(C(F)(F)F)ccc1C(=O)N1CCC1(C)C(=O)Nc1ccc2c(c1)OCO2 (stereo unspecified)
    i | 4.4
CC(C)C[C@H]1CN([C@@H](Cc2ccccc2)CN2CCC[C@@H]2CN2C(=O)C(=O)NC[C@@H]2Cc2ccccc2)C(=O)C(=O)N1CCc1ccccc1
    i | -0.3
COc1ccc(CNC(=O)O[C@]23C[C@H]4C(=O)N(c5ccccc5)C(=O)[C@H]4C[C@@]2(O)CN(S(=O)(=O)c2ccc(C)cc2)C3)cc1OC
    i | -5.6
O=C1CC(c2ccccc2)NC(=S)N1 (stereo unspecified)
    i | -4.3
CN1CCN(C(=O)c2ccc(NC(=O)c3ccc(Br)o3)cc2)CC1
    i | -2.0
COc1ccc(-c2[nH][nH]c(=O)c2NC(=O)c2ccccn2)cc1
    i | 2.5
O=S1(=O)N[C@H](Cc2ccccc2)COc2cccc(N3CCSCC3)c21
    i | -2.5
CCOC(=O)c1cc(OC)c2cccc(CN3CCCC(C)(C(=O)NCCOC)C3)c2c1 (stereo unspecified)
    i | -6.4
COC(=O)[C@]12CCCCC=C1N(CCc1ccc(OC)c(OC)c1)C(=O)[C@H](CC(=O)NCCCCc1ccccc1)C2
    i | -5.8
N#Cc1ccc(C(S(=O)(=O)Cc2ccccc2)S(=O)(=O)Cc2ccccc2)cc1
    i | -1.6
O=C(c1ccc2ccccc2c1O)N1CCCCC1
    i | 2.4
O=C1NC[C@H](CCCCN2C[C@H](Cc3ccccc3)N(Cc3ccccc3)C(=O)C2=O)N(CCc2ccc(O)cc2)C1=O
    i | -0.9
CC(C)(C)S(=O)N1Cc2cc(C(=O)Nc3ccc(-c4ccccc4)cc3)nc(-c3cccc(-c4cc5ccccc5o4)c3)c2[C@@H]1CCO (stereo partly specified)
    i | 14
FC(F)(F)Oc1ccccc1C(c1nnnn1-c1ccc2c(c1)OCCO2)N1CCN(C/C=C/c2ccccc2)CC1 (stereo unspecified)
    i | 4.9
O=C(Nc1cccc2ccccc12)c1ccc2sc([C@H]3C[C@H](O)[C@@H](CO)O3)nc2c1
    i | -0.3
Cc1cn([C@H]2C[C@H](O)[C@@H](/C=C/C(=O)NCCC(C)C)O2)c(=O)[nH]c1=O
    i | -1.5
COc1ccc(-c2oc3c(c2C#CC(C)(C)O)C(OC)CCC3)cc1 (stereo unspecified)
    i | 2.6
O=C(COC(=O)c1cccc(OC(F)F)c1)Nc1cc(S(=O)(=O)N2CCCC2)ccc1Cl
    i | -2.4
Clc1cccc(CNc2ccn3nc(-c4cccc(Cl)c4)cc3n2)c1
    i | 5.5
Oc1ccc(C[C@H]2CN([C@@H](Cc3cccc(O)c3)CN3CCC[C@@H]3CN3C(=S)NC[C@@H]3Cc3ccccc3)C(=S)N2CC2CCCCC2)cc1
    i | -0.8
CC1(C(=O)Nc2cccc3cccnc23)CCN1C(=O)CC1CC1 (stereo unspecified)
    i | 5.5
CCCCN1C(=O)C(CC(=O)NCCCCc2ccccc2)CC(C(=O)N(C)C)=C1C (stereo unspecified)
    i | 0.0
COc1cccc(C(C)(O)c2nc(-c3cccc(C(C)C)c3)cs2)c1 (stereo unspecified)
    i | 0.3
Cc1ccc(OCc2nc3ccccc3n2C(C(=O)NC(C)(C)C)c2ccccc2)cc1 (stereo unspecified)
    i | -2.5
Cn1ccc2c(-c3cccc4ccccc34)cc3c(c21)C1CCC3O1 (stereo unspecified)
    i | -2.0
O=S(=O)(c1ccccc1)N1CCN(Cc2nnc(-c3ccccc3)o2)CC1
    i | 5.4
Cc1cccc(C)c1-n1nnnc1-c1nc2ccccc2[nH]c1=O
    i | 3.8
CC(C)(C)N1C(=O)c2ccccc2NC(=O)C1C(=O)NCCOc1ccccc1 (stereo unspecified)
    i | 1.6
Cn1ccc2c(-c3ccc(C(=O)O)cc3)cc3c(c21)C1CCC3C1 (stereo unspecified)
    i | -0.1
O=C(NC1CCOC1=O)OCc1ccccc1 (stereo unspecified)
    i | -9.1
Cc1cc(C)n2nc(SCC(=O)NC3(C#N)CCCCC3)nc2n1
    i | -0.3

# Further entries follow.
SMILES,FGF22 binding,HNF4A DNA FP
Cc1cccc(C)c1NC(=O)Nc1nc(C(N)c2ccccc2Cl)cs1 (stereo unspecified),i,-0.9
CCc1nc2c(OCCn3cccc3)cccn2c1N(C)C(=O)c1ccco1,i,-0.1
Cc1ccc(C(=O)OCC(=O)N2CCC(C)CC2)cc1S(=O)(=O)N1CCOCC1,i,-6.0
CC1ON=C(c2ccc(F)cc2)NC1=O (stereo unspecified),i,5.8
CSCCC(c1nnnn1C(C)(C)C)N1CCN(C/C=C/c2ccccc2)CC1 (stereo unspecified),i,0.7
Cc1cccc(C)c1-n1nnnc1C(c1ccnc2ccccc12)N1CCN(C(=O)OC(C)(C)C)CC1 (stereo unspecified),i,2.1
COC1=CC(=O)OC(c2ccccc2C(F)(F)F)C1 (stereo unspecified),i,0.1
O=c1oc(=S)oc2c1[C@H](c1ccc(Cl)cc1)O[C@H](C1CC1)C2,i,3.0
C#CCOCC1CN(C)C(=O)O1 (stereo unspecified),i,1.3
O=C(c1cc(Cl)cc(Cl)c1)N1CCC2CC1c1cc(N3CCCCC3)ccc12 (stereo unspecified),i,7.2
COc1ccc(CN2C(=O)CN(S(C)(=O)=O)CC2(C)C(=O)NC(C)C)cc1OC (stereo unspecified),i,0.4
OCCOC1CCCc2oc(-c3ccccc3)c(C#CC3(O)CCCCC3)c21 (stereo unspecified),i,-2.8
Cc1ccc(C(O)c2ncc(-c3ccc4ccccc4c3)[nH]2)cc1F (stereo unspecified),i,0.2
CN(C)c1ccc(-c2cccc3nccn23)cc1,i,-2.4
Cc1noc(C)c1COc1ccccc1C(=O)N1CCN(S(=O)(=O)c2ccc(C(C)C)cc2)CC1,i,4.9
CC(=O)Nc1ccc(CNc2nc(NCc3cccs3)nc3ccsc23)cc1,i,-0.4
CC1=C(C(=O)N(C)C)CC(CC(=O)NC2CCCCC2)C(=O)N1Cc1ccccc1 (stereo unspecified),i,1.4
COc1ccc(S(=O)(=O)N2CCCCC2c2cc(C(=O)N3CCOCC3)no2)cc1 (stereo unspecified),i,-3.6
CC(C)c1ccc(NC(=O)C2Cc3c(-c4ccc5c(c4)OCO5)ccnc3O2)cc1 (stereo unspecified),i,-5.1
CCOC(=O)N(C)c1c(CC)nc2c(OCc3ccc(Cl)cc3Cl)cccn12,i,3.6
CNc1ccc(/C=C\CCCO)cn1,i,3.9
C[C@H](CO)N1C[C@H](C)[C@H](CN(C)C(=O)CCC(F)(F)F)OCc2cnnn2CCCC1=O,i,0.9
Cc1nc(N2CCCCC2)[nH]c(=O)c1CN(C)N=O,i,-2.1
O=C(NCc1ccco1)c1ccc(CS(=O)c2ccccc2Cl)o1 (stereo unspecified),i,5.6
C/C=C1\NC(=O)[C@H](C)NC(=O)[C@@H](NC(=O)[C@@H](Cc2ccc(O)cc2)NC(=O)[C@@H](NC(=O)/C(C)=C/C)C(C)C)[C@@H](C)OC(=O)[C@H](CCCCc2ccc(O)cc2)NC(=O)[C@@H](CCC(=O)OC)NC1=O,i,1.5
Cc1ccccc1N1CCN(C2CCCN(C(=O)CSc3ccccn3)C2)CC1 (stereo unspecified),i,-0.2
COc1ccc(C2=Nc3ccccc3N(C(=O)c3ccc(C)cc3)C2C(=O)NCc2ccccc2)cc1 (stereo unspecified),i,4.0
CCOC(=O)C1=CCN(S(C)(=O)=O)C1c1ccc(C)cc1 (stereo unspecified),i,-1.6
Cc1nc2ccc(C(=O)Nc3cccc(OCC(=O)N(C)C)c3)cn2c1N(C)CC1CCCCC1,i,-0.8
CCOC(=O)C1=CCN(S(=O)(=O)c2ccccc2Cl)C1c1cccc(Cl)c1 (stereo unspecified),i,-0.5
O=C(Nc1c(-c2ccccc2)[nH][nH]c1=O)c1ccc(Br)cc1,i,4.4
CC(OC(=O)/C=C/c1ccco1)C(=O)NC1CCCCC1 (stereo unspecified),i,1.5
CCCNC(=O)C1(C)CCCN(C(=O)Cc2ccc(OC)c(OC)c2)C1 (stereo unspecified),i,-2.2
Cc1ccc(NC(=O)C2(C)CCN2C(=O)Cc2ccc(-c3ccccc3)cc2)cc1 (stereo unspecified),i,0.6
CN(Cc1cn(Cc2ccc(Cl)cc2)nn1)C1CN(Cc2cn(Cc3ccc(Cl)cc3)nn2)S(=O)(=O)C1 (stereo unspecified),i,-0.6
COCCNC(=O)c1ccc(N2CC3CC(C2)c2cccc(=O)n2C3)c(NC(=O)c2ccccc2Br)c1 (stereo unspecified),i,1.7
CCOC(=O)c1cc2cc(OC)ccc2n1C1CCN(C)CC1,i,5.0
CCOC(=O)c1cc(Cl)c2c(ccc3ccccc32)n1,i,-5.0
CC(C)(C)C1CCN2CCCC(c3ccccc3)(C1)C2=O (stereo unspecified),i,2.8
O=C(Nc1ccccc1Cl)c1cc(C2CCCCN2C(=O)c2cccs2)on1 (stereo unspecified),i,2.5

# Of the compounds above, 4 contain two or more sulfur atoms:
SMILES,FGF22 binding,HNF4A DNA FP
O=S1(=O)N[C@H](Cc2ccccc2)COc2cccc(N3CCSCC3)c21,i,-2.5
N#Cc1ccc(C(S(=O)(=O)Cc2ccccc2)S(=O)(=O)Cc2ccccc2)cc1,i,-1.6
Oc1ccc(C[C@H]2CN([C@@H](Cc3cccc(O)c3)CN3CCC[C@@H]3CN3C(=S)NC[C@@H]3Cc3ccccc3)C(=S)N2CC2CCCCC2)cc1,i,-0.8
CC(=O)Nc1ccc(CNc2nc(NCc3cccs3)nc3ccsc23)cc1,i,-0.4

# Shown with each value named: 4 of the compounds above.
> CCCNC(=O)C1(C)CCCN(C(=O)Cc2ccc(OC)c(OC)c2)C1 (stereo unspecified)
  FGF22 binding: i	HNF4A DNA FP: -2.2
> Cc1ccc(NC(=O)C2(C)CCN2C(=O)Cc2ccc(-c3ccccc3)cc2)cc1 (stereo unspecified)
  FGF22 binding: i	HNF4A DNA FP: 0.6
> CN(Cc1cn(Cc2ccc(Cl)cc2)nn1)C1CN(Cc2cn(Cc3ccc(Cl)cc3)nn2)S(=O)(=O)C1 (stereo unspecified)
  FGF22 binding: i	HNF4A DNA FP: -0.6
> COCCNC(=O)c1ccc(N2CC3CC(C2)c2cccc(=O)n2C3)c(NC(=O)c2ccccc2Br)c1 (stereo unspecified)
  FGF22 binding: i	HNF4A DNA FP: 1.7

# Further structures.
SMILES,FGF22 binding,HNF4A DNA FP
COC(=O)[C@]12CCCCC=C1N(Cc1ccc3c(c1)OCO3)C(=O)[C@H](CC(=O)N1CCN(C(=O)c3ccco3)CC1)C2,i,-4.5
Cc1ccc([C@H]2C[C@@H](n3cc(-c4ccc(F)cc4)nn3)[C@H](O)CN2Cc2cccs2)cc1,i,-7.9
COc1ccc(C(=O)OCC(=O)NC23CC4CC(CC(C4)C2)C3)c(O)c1,i,0.9
COCCNc1nc(-c2ccc(Cl)cc2C)c2sccc2n1,i,0.2
Cc1ccc(-c2csc(C(O)(c3ccccc3)C(F)(F)F)n2)cc1C (stereo unspecified),i,-0.8
Cc1cc(C)c(NC(=O)CN(C)C(=O)CCN2C(=O)C3CCCCC3C2=O)c(C)c1 (stereo unspecified),i,0.4
CC1=C(C(=O)N(C(C)C)C(C)C)CC(CC(=O)NCCN2CCOCC2)C(=O)N1Cc1ccc(F)cc1 (stereo unspecified),i,2.5
CCc1cnc(Nc2nc(C(N)c3ccccc3Cl)cs2)nc1 (stereo unspecified),i,-2.2
CCN(CC)C(=O)C1=C(C)N(Cc2ccc(F)cc2)C(=O)C(CC(=O)NC(c2ccccc2)c2ccccc2)C1 (stereo unspecified),i,-2.2
OC(c1cccc(Cl)c1)c1ncc(-c2ccccc2Cl)[nH]1 (stereo unspecified),i,2.4
COc1cccc(C(NC(C)=O)c2nc(-c3cnc4ccccc4c3)cs2)c1 (stereo unspecified),i,5.5
COCCNc1nc2cc(-c3ccc(F)cc3)sc2c(=O)n1C,i,0.3
Cc1ccsc1-c1cc2nc(NCCCN(C)C)n(C)c(=O)c2s1,i,2.9
OCCCNc1ncnc2c1ncn2[C@H]1CN(Cc2cccs2)C[C@@H](CO)O1,i,-0.4
COc1ccc(C(=O)N/C(=C/c2cccs2)C(=O)N2CCN(C)CC2)cc1,i,-1.2
NS(=O)(=O)c1ccc(CCNc2ccn3nc(-c4ccccc4)cc3n2)cc1,i,1.1
CCCCCCCCN1C(=O)[C@H](CC(=O)NCCCCc2ccccc2)C[C@@]2(C(=O)OCC)CCCC=C12,i,1.6
Brc1ccc2nc(C3CCCCC3)c(Cc3ccccc3)n2c1,i,-0.1
CCOC(=O)C(CC)c1cc2n(c(=O)c1C#N)CCC21OCCO1 (stereo unspecified),i,4.2
CC1CCN(C(=O)c2[nH]cnc2C(=O)Nc2ccccc2F)CC1,i,-0.4
O=C1OCC/C1=C\NCCCCCCCCN/C=C1\CCOC1=O,i,-7.8

# These rows are one share of the data; count on the stated rates, not on these rows.
